Screening results deposited in PubChem BioAssay by Broad Institute.
Beta cell apopt: beta cell apoptosis inhibition; INS-1E cytokine-induced death, ATP luminescence, 48 h; percent of positive-control rescue, neutral wells zero; AID 435005; protection from apoptosis, % (test concentration not listed); actives 0.8% (n = 300,000);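 active means all replicates at 75% or more, or half of them and the mean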;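 further: 0% = cytokine-treated negative control wells and 100% = positive control rescue; higher means more ATP so stronger rescue from cytokine killing; wells of about 40 µL received 100 nL stock; the first replicate is given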
A1 inh: inhibitors of the anti-apoptotic protein A1, read as caspase activation; caspase activation, % (concentration not given with the values); actives 0.066% (n = 330,000); AID 2462; MEF A1-2A-BIM cells, Caspase-Glo 3/7 luminescence, 3 h; percent of clofoctol response, vehicle zero;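 active means over half of replicate activation scores above 10%, or exactly half above 10 with the replicate mean above 10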;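 further: wells of about 30 µL received 50 nL stock; many hits fall short of the cut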
T cruzi repl: blocks replication of Trypanosoma cruzi. actives 1.4% (n = 300,000). inhibition, % (no concentration beside the values). T. cruzi beta-gal in NIH3T3, luminescence, 90 h;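 active means mean inhibition across valid replicates above about 55%, limit read from the data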;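 further: signal also drops with host cell toxicity which is not excluded here; 0% = plate median of DMSO wells and 100% = zero luminescence signal; higher percent means less beta-gal luminescence so fewer parasites; stock transfer was 50 nL into about 50 µL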
Starred values were filed as active, the others as inactive. This is a subset; the hit share may differ from the screen's.

SMILES | Beta cell apopt | A1 inh | T cruzi repl
CC(/C=C/c1ccco1)=N/NC(=O)Cc1cccs1 | -3 | 1.4 | -18
CCOC(=O)c1[nH]c2ccc(Br)cc2c1NC(=O)CCN1CCCC(C)C1 (centres undefined) | 4 | 0.7 | 5
CCOC(=O)C(CC)/C(C)=N/NC(=O)c1ccccc1[N+](=O)[O-] (centres undefined) | -10 | 0.8 | -1
COc1ccc(-c2ccc(/C=N/N3C(=O)C4C5C=CC(C6CC56)C4C3=O)o2)c([N+](=O)[O-])c1 (centres undefined) | -3 | 0.2 | 2
CC1(C)Cc2c(sc3ncn(N)c(=N)c23)CO1 | -1 | 0.5 | -7
O=C(N/N=C/c1ccco1)C1CC1 | -8 | -0.3 | -16
O=C(O)CC1S/C(=N/N=C/c2ccc(-c3ccccc3[N+](=O)[O-])o2)NC1=O (centres undefined) | 3 | 1.0 | -19
COc1ccc(C/C(C)=N/NC(=S)Nc2ccc(C)c(C)c2)cc1 | -9 | 0.1 | 3
Cc1cc(C)nc(NC(=O)NS(=O)(=O)Nc2ccc(Br)cn2)n1 | -5 | -0.5 | -5
Cc1cccc(-c2onc3ccc(C4(C)OCCO4)cc23)c1 | -3 | 0.5 | 7
O=C(O)COc1ccccc1/C=C1\SC(=S)N(/N=C/c2ccccc2O)C1=O | 11 | -1.1 | -4
O=C(N/N=C/c1cccc(Oc2ccccc2)c1)c1cc[n+]([O-])cc1 | -1 | 0.3 | 4
COc1cccc(-c2cc(C(=O)N/N=C/c3ccc(OC)c(COC(C)=O)c3)c3ccccc3n2)c1 | 4 | -0.7 | 4
Cc1ccsc1/C=N/n1c(COc2ccccc2)n[nH]c1=S | -2 | 0.6 | -3
Cc1ccc(NS(=O)(=O)c2ccc(N/N=C/c3ccncc3)c([N+](=O)[O-])c2)c(C)c1 | 0 | -0.1 | 1
N#Cc1c(Cl)c(Cl)c2nnc(-c3ccc(Br)cc3)n2c1Cl | -3 | -0.9 | -9
CCOc1ccc(S(=O)(=O)N(CC(=O)N/N=C/c2ccc(-c3ccc([N+](=O)[O-])cc3)o2)c2ccccc2)cc1 | -5 | 0.3 | 22
COc1ccc2c(c1O)C(=O)c1ccccc1C2=O | -2 | -0.6 | 7
Brc1ccc(C2=CC(c3ccco3)n3ncnc3N2)cc1 (centres undefined) | 7 | 0.0 | 9
CC(=O)Nc1ccc(N2CCc3c(C)c(C#N)c4nc5ccccc5n4c32)cc1 | -5 | -0.1 | -8
COc1ccccc1/C=C\C=N\n1c(-c2ccc(Cl)cc2Cl)n[nH]c1=S | -3 | 0.3 | -9
C/C(=N\N=c1/scc(C)n1Cc1ccco1)c1cccc([N+](=O)[O-])c1 | 2 | 2.2 | 21
CCOc1cc(/C=N/NC(=S)Nc2ccccc2C(F)(F)F)ccc1OCC(=O)N1CCOCC1 | -11 | 0.8 | 4
COc1cccc(/C(C)=N/Nc2ncc(Cl)cc2Cl)c1 | 0 | -1.0 | -4
Cc1nnc(NC(=O)C2C3C=CC(O3)C2C(=O)O)s1 (centres undefined) | -8 | -0.4 | -1
O/N=C(/Cc1ccccn1)c1ccccc1 | -1 | 0.0 | -11
CCn1ncc(/C=N\NC(=O)c2cc(-c3ccc(C)cc3C)nc3ccccc23)c1C | 5 | 0.0 | 3
C/C(=N\OC(=O)c1ccccc1)c1cc(-c2ccc(Cl)cc2)no1 | 1 | -11 | -2
CCOC(=O)C1CCCN(C(=O)c2ccco2)C1 (centres undefined) | -7 | 1.0 | -11
O=C(COc1cccc(Cl)c1)N/N=C\c1cc2ccccc2nc1Cl | 0 | 0.0 | 1
CC1=C(C#N)C2C(/C1=N/O)C2(C)C (centres undefined) | -6 | -0.2 | -22
C/C(=N/Nc1cc(-c2ccccc2)nc(-c2ccccc2)n1)c1ccc(O)cc1 | 7 | 0.5 | 52
CCOc1ccc(/C=N/n2cnnc2)cc1 | -4 | 0.7 | -8
C/C(=N\N=C\c1ccccc1F)c1nnn(-c2nonc2N)c1C | 2 | 0.5 | -2
O=C(CC(=O)N/N=C\c1c(Cl)cccc1Cl)NCc1ccccc1 | -1 | 0.6 | 3
COc1ccccc1/C=N/OCC(=O)NCc1ccc2c(c1)OCO2 | -17 | -0.5 | -9
CCCCCOCC1CC(C/C(C)=N/Nc2nc(-c3ccccc3)cs2)C(=O)O1 (centres undefined) | -4 | 0.4 | 9
O/N=C1/CCCSc2ccccc21 | -7 | -0.7 | -9
Cc1cccc2c(C(=O)n3cccn3)cc(-c3ccccc3Cl)nc12 | -4 | 0.4 | 7
C/C(=N\NC(=O)c1ccc(CSc2nncn2C)cc1)c1ccc(C#N)cc1 | -4 | -0.1 | -25
CC/C(=N\NC(=O)c1csc(C)c1C)c1cccs1 | -2 | -3.4 | -1
CCCCCCC1CC(/C(C)=N\NC(N)=O)OC1=O (centres undefined) | -5 | -1.2 | -2
CC(=O)N1CCN(c2nc(CC(C)C)c3c(c2C#N)CCC3)CC1 | 10 | 1.1 | 11
COc1ccccc1/C=N/NC(=O)CC(=O)NCc1cccnc1 | -5 | -1.1 | -8
O=C(O)/C=C/C(=O)Nc1ccc(Oc2ccc(NC(=O)/C=C/C(=O)O)cc2)cc1 | -5 | -0.1 | -10
CN1CCN(S(=O)(=O)c2ccc3[nH]c(=O)oc3c2)CC1 | 1 | 0.3 | 0
Cc1cc(C(=O)N/N=C/c2ccccc2Br)no1 | -13 | -2.1 | -5
O=C1CC(CC(=O)N/N=C/c2ccccc2[N+](=O)[O-])=NN1 | -1 | 0.9 | -11
CSc1nc(C)cc(OCC(=O)N/N=C/c2ccccc2O)n1 | 65 | 0.2 | -9
CCCn1c(/N=C/c2ccccc2O)nc2ccccc21 | -3 | 0.0 | -5

Following part:
SMILES | Beta cell apopt | A1 inh | T cruzi repl
COc1ccc(NC(=O)CCC(=O)N/N=C/c2ccc([N+](=O)[O-])s2)cc1 | 30 | -0.6 | 50
CCOc1ccc(/C=N/O)cc1 | -9 | -1.6 | -33
C(=C\c1ccccc1)/C=N/Nc1nc(N2CCCCC2)nc(N2CCCCC2)n1 | -8 | 0.4 | 16
CCOC(=O)C(/C=N/c1cc(C)nn1-c1ccccc1)=C(\C)O | -3 | 0.1 | 4
C/C(=N/Oc1nc(C)cc(C)n1)c1ccccc1 | 0 | -0.2 | -14
N/C(=N\OC(=O)Oc1ccccc1)c1cccc([N+](=O)[O-])c1 | 1 | -1.3 | -8
CN(C)c1ccc(/C=N\NC(=O)c2csnn2)cc1 | 0 | -12 | -1
O=C1/C(=N/n2cnnc2)c2ccccc2N1Cc1ccccc1 | -1 | 0.8 | 1
COc1ccc(-c2nn(-c3ccccc3)cc2/C=N/NC(=S)NC(C)C)cc1OC | 37 | -0.1 | 20
CN1Cc2cc(C(=O)c3cc(Cl)cc(CSc4ncccn4)c3O)cnc2NC1=O | 23 | 0.2 | 32

More records:
| SMILES | Beta cell apopt | A1 inh | T cruzi repl |
| --- | --- | --- | --- |
| C/C(=N\OCC(=O)Nc1ccc2c(c1)OCCO2)c1ccc2c(c1)OCCO2 | 2 | -1.8 | -8 |
| CN1CCN(/C=N/C2=C(C#N)C(c3ccccc3)C3=C(CC(C)(C)CC3=O)O2)CC1 (centres undefined) | 0 | -1.1 | 17 |
| O=S(=O)(Nc1nc2ccccc2nc1N1CCc2ccccc2C1)c1ccc(Cl)cc1 | 3 | -4.5 | -1 |
| Cn1cccc1/C=N/n1c(-c2ccccc2)n[nH]c1=S | 3 | 0.5 | -1 |
| O=C(N/N=C\c1ccc(O)c([N+](=O)[O-])c1)c1ccccc1-n1cccc1 | -6 | -0.2 | -11 |
| COc1ccccc1NC(=O)N1CCC(c2nc3cc(C)c(C)cc3[nH]2)CC1 | 15 | 0.1 | 41 |
| CCOc1cc2nc(-c3ccc(OC)c(OC)c3)nc(N3CC(C)OC(C)C3)c2cc1OC (centres undefined) | 6 | -0.7 | 24 |
| C/C(CC(=O)NCc1ccco1)=N\NC(=O)C(c1ccccc1)c1ccccc1 | -6 | 0.5 | 3 |
| C=CCc1cccc(/C=N/NC(=O)CNc2ccccc2)c1O | 90* | -0.4 | 52 |
| O=C(/C=C/c1cn(CC(O)CN2CCOCC2)c2ccccc12)c1cccs1 (centres undefined) | -3 | 1.0 | -9 |
| CC(C)CN(/C=N/c1sc2c(c1C#N)CCCCC2)CC(C)C | 4 | 0.2 | 45 |
| O=C(O)c1cccc(-c2ccc(/C=N/NC(=O)c3cccnc3)o2)c1 | -20 | -2.2 | -1 |
| COc1cccc(/C=N/NC(=O)CCc2c(C)n[nH]c2C)c1 | -7 | 0.2 | 11 |
| CC(C)c1ccc(C2CC(=O)N3CN(C)CSC3=C2C#N)cc1 (centres undefined) | -5 | 0.1 | -2 |
| O=[N+]([O-])c1ccc(O)c(C=Nc2ccc3oc(Cc4ccc(Cl)cc4)nc3c2)c1 | -7 | 0.3 | -11 |
| CC(=O)/C(=N/Nc1ccccc1C)N1CCOCC1 | -1 | 0.2 | -3 |
| O=C(Cn1nnc(-c2ccccc2Cl)n1)N/N=C/c1ccc2c(c1)OCO2 | -4 | 0.7 | -6 |
| O=C1CSC(=S)N1/N=C/c1ccc(O)c(O)c1O | -2 | -0.8 | 23 |
| C(=N\c1nc2ccccc2n1CCN1CCCCC1)/c1cccs1 | 4 | 1.1 | 41 |
| COc1cc2nc(C3CCC3)nc(N3CCN(c4ccccn4)CC3)c2cc1OC | 14 | -0.1 | 23 |
| CCC(C)n1c(-c2cc(OC)c(OC)c(OC)c2)nc2nc3ccccc3nc21 (centres undefined) | 3 | -0.5 | -3 |
| CC1(c2nnc(-c3ccc(F)cc3)o2)CC(c2ccncc2)=NO1 (centres undefined) | -2 | -0.7 | -6 |
| Cc1ccccc1OCC(=O)N/N=C/c1cc2ccccc2nc1Cl | -7 | 0.1 | 16 |
| CC1(N2CCCCC2)CC2(O)C(=[N+]1[O-])CCC/C2=N\O (centres undefined) | -6 | 0.5 | -7 |
| O=C(NNc1nc(-c2ccccc2)cs1)c1ccccc1 | -6 | 0.0 | -11 |
| COc1ccc(/C=N/n2c(=O)[nH]c3c([nH]c4ccc(Br)cc43)c2=O)cc1CN1CCOCC1 | 7 | 0.9 | -2 |
| CCC(=O)OC1(C)C(=O)C=C2C=C(CCCCNC(=O)OC(C)(C)C)OC=C2C1=O (centres undefined) | -3 | 0.1 | -1 |
| Cc1ccc(/C=N/NC(=O)CSCc2ccc(Cl)cc2)cc1 | -16 | 1.0 | -12 |
| Cc1ccc(/C=C/C2=Cc3c(sc(NC(=O)CSc4n[nH]c(N)n4)c3C#N)C(C)(C)C2)o1 | 2 | 2.8 | -2 |
| COc1ccc(N(CC(=O)N/N=C/c2cc(Br)c(C)o2)S(=O)(=O)c2ccc(NC(C)=O)cc2)cc1 | -2 | -0.5 | 9 |
| Cc1ccc(C(=O)O/N=C\c2ccc(N3CCOCC3)c([N+](=O)[O-])c2)cc1 | -3 | 0.1 | -4 |
| COC(=O)N/N=C/c1cn(CCCOc2ccccc2)c2ccccc12 | -5 | -0.4 | 10 |
| Cn1ncc(Br)c1C(=O)N/N=C/c1ccc(OS(=O)(=O)c2ccccc2)cc1 | 3 | -4.1 | 1 |
| CC1=NN(/C(=N\c2nnc(C)s2)Nc2ccc(C(C)(C)C)cc2)[C@H](c2ccc(C)cc2)S1 | 12 | 0.8 | 57* |
| CC(C)CC(=O)O/N=C1\C(=O)N(c2ccccc2)c2ccccc21 | -2 | -0.1 | -5 |
| C#CCn1c(=NC(=O)c2ccccc2[N+](=O)[O-])sc2cc(S(C)(=O)=O)ccc21 | 0 | 0.4 | 8 |
| Nc1nnnn1/N=C/c1ccccc1OCc1ccc(Cl)cc1 | -6 | -1.0 | 15 |
| O=C(Cc1ccccc1[N+](=O)[O-])OCc1cccc([N+](=O)[O-])c1 | 3 | -0.1 | -2 |
| O=C(CC1S/C(=N\S(=O)(=O)c2ccc(F)cc2)N(c2ccccc2)C1=O)Nc1ccccc1 (centres undefined) | -6 | 0.5 | -13 |
| Cc1ccc(-n2[nH]c(C)c(/C=N/Nc3ccc([N+](=O)[O-])cc3[N+](=O)[O-])c2=O)cc1C | 54 | -0.4 | 5 |
| CCCCC(CCCC)=N/N=C/c1c(O)n(CC)c2cc(C3=NNC(=O)CC3)ccc12 | 19 | 0.1 | 21 |
| COC(=O)c1ccc(/C=N/Nc2nc(-c3ccccc3)cs2)cc1 | -1 | -0.2 | -1 |
| CCC(=O)N/N=C(\C)CC(=O)Nc1ccc2ccccc2c1 | -12 | 0.1 | -8 |
| C=CCOc1c(Br)cc(/C=N/NC(=O)Cc2ccc(C(F)(F)F)cc2[N+](=O)[O-])cc1OC | 6 | 0.2 | 12 |
| COc1ccccc1/C=N/NC(=O)CN(C1=NS(=O)(=O)c2ccccc21)c1ccccc1 | -2 | -0.3 | -1 |
| CC(/C=C/c1ccc2c(c1)OCO2)=N\NC(=O)COc1ccccc1C | 3 | -0.3 | -7 |
| COC(=O)c1ccc(N2Cc3ccccc3/C2=N\C(=O)Nc2ccccc2)cc1 | -1 | -0.6 | -6 |
| C=CCc1cccc(/C=N/c2ncccc2O)c1O | 6 | -0.6 | -2 |
| COc1ccc(Cc2nnc(N/N=C/c3ccc(O)cc3)[nH]c2=O)cc1OC | 99* | 0.7 | 11 |
